LANA-H2A inh: blockers of LANA interaction with H2A/H2B – biochemical, FP readout, HTS, primary screen | cell-free LANA-H2A/H2B peptide, fluorescence polarization | inhibition, % (no concentration beside the values) | Protein LANA1 (Human herpesvirus 8 type P (isolate GK18)), Q9QR71 | 320,000 tested, 0.6% active; in the data active = inhibition mostly above about 10%, no sharp cut-off; inactive = mostly below about 6.7%;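 also: stock transfer was 7.5 nL into about 10 µL; 0% = median of vehicle wells and 100% = median of positive control wells; one replicate is shown; the record names a cut of 25% in any replicate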
Target sequence (Q9QR71 whole entry, looked up): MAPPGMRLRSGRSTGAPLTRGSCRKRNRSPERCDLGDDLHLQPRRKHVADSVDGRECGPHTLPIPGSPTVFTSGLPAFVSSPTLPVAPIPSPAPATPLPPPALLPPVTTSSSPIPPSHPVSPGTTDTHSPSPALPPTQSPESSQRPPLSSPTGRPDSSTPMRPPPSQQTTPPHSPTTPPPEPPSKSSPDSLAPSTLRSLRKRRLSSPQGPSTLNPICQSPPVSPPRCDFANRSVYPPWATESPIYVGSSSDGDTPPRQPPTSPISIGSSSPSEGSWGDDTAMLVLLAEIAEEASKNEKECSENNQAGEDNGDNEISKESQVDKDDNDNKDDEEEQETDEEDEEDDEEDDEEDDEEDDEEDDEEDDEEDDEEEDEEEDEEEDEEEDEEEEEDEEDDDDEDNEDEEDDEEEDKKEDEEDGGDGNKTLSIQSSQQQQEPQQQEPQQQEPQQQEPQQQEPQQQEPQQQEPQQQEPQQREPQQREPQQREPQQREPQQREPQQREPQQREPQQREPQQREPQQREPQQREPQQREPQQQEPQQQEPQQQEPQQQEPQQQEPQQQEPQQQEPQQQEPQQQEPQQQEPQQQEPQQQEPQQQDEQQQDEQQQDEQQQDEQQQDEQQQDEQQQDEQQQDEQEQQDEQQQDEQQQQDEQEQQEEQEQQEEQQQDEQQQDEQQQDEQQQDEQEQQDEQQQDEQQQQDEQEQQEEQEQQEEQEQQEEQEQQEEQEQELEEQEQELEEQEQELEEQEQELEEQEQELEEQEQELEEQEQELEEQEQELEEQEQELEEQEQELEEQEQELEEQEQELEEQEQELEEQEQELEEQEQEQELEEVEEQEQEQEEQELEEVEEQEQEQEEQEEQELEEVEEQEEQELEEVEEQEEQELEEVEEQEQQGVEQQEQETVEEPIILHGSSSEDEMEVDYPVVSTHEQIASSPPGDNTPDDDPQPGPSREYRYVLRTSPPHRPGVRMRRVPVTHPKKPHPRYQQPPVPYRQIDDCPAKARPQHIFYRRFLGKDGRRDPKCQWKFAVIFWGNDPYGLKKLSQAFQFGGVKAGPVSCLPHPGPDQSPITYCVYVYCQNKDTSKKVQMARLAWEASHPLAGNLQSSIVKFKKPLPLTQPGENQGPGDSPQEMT
Bfl-1 A1 inh: caspase 3/7 activation in MEF A1-2A-BIM cells, primary screen, A1 inhibitor project, cell-based, luminescence, HTS; caspase activation, % (no concentration beside the values); Caspase-Glo 3/7 luminescence, 3 h; percent of clofoctol response, vehicle zero; 330,000 tested, 0.066% active;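 active = over half of replicate activation scores above 10%, or exactly half above 10 with the replicate mean above 10; inconclusive = replicate mean below 10 yet half the replicates above 10; inactive = over half of replicates below 10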;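 also: wells of about 30 µL received 50 nL stock; many hits fall short of the cut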
Vif TR-FRET: inhibitors of Vif binding to APOBEC3G peptide, primary screen, biochemical, TR-FRET, GST-Vif 1-94, biotin-A3G peptide, dose response retest (AID 1117319); Virion infectivity factor (Human immunodeficiency virus type 1 group M subtype B (isolate …; TR-FRET GST-Vif / biotin-A3G peptide binding; higher % means a stronger effect; test concentration not given here; strong numbers were not always called active; one-dose inhibition, %; IC50 in µM for titrated hits; 260,000 tested, 0.57% active;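 active = above the screen mean plus three standard deviations and confirmed in dose response; inconclusive = results disagree or hit not tested in dose response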;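 also: Vif residues 1-94 fused to GST binding biotinylated APOBEC3G peptide 110-148; 0% = full assay without inhibitor and 100% = GST in place of GST-Vif; retest series ran down from 100 µM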
E coli growth: E. coli growth inhibition, primary screen, OD600 | AID 1053175, 2014 | OD600 absorbance (test concentration not listed) | 330,000 tested, 0.21% active | Escherichia coli growth, 23 h; active compounds read low;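 active = OD600 absorbance below the run mean of sample wells minus 3.6 SD, in any replicate, cut at about 0.56 in these data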;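 also: stock transfer was 300 nL into about 60 µL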
UCH37 inh: inhibitors of human UCH37 deubiquitinase, primary screen, biochemical, Ub-AMC cleavage, fluorescence; Ubiquitin carboxyl-terminal hydrolase isozyme L5 (Homo sapiens), Q9Y5K5; purified proteasome/UCH37; inhibition, % (test concentration not listed); 330,000 tested, 0.33% active;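 active = mean of two replicates above 20%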;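 also: 0% = compound-free wells with enzyme and 100% = wells lacking proteasome; stock transfer was 100 nL into about 20 µL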
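Material: Human UCH37 enzyme supplied as purified proteasome complex | Schedule: 30 min preincubation with enzyme, 25 min cleavage at room temperature | Detection: AMC fluorescence 355/460 nm | Measure: % inhibition of Ub-AMC cleavage fluorescence | Controls: Wells without proteasome as full block, compound-free enzyme plus substrate as uninhibited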
B2AR ag: beta2AR agonists driving receptor internalization, primary screen, cell-based, FAP fluorogen, flow cytometry; Beta-2 adrenergic receptor (Homo sapiens), P07550; Am2.2-beta2AR cells; reference of the scale not given here; response, % (concentration not given with the values); 340,000 tested, 0.43% active;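 active = response above a set limit, near 3 SD of response in nonfluorescent compounds, cut at about 42% in these data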;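 also: stock transfer was 100 nL into about 11 µL; a reference agonist was the positive control; negative values mostly stem from fluorescent compounds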
HNF4A DNA FP: change in binding of human HNF4A to DNA, primary screen, biochemical, fluorescence polarization, FITC-DNA; Hepatocyte nuclear factor 4-alpha (Homo sapiens), P41235; 1 h; activity change, % at 10 µM; 360,000 tested, 0.3% active; AID 1224865, 2016; in the data active = activity change above about 30%, passing the limit was not always enough;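 also: controls were the assay level and a saturating level of protein; the project sought stronger binding though the title names inhibitors; some compounds called inactive have numbers as strong as hits; positive values seem to mean higher polarization but the record does not say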
An asterisk follows results filed as active; i = inactive; u = inconclusive; x = no result given.

A first look, 4 compounds:
SMILES	LANA-H2A inh	Bfl-1 A1 inh	Vif TR-FRET	E coli growth	UCH37 inh	B2AR ag	HNF4A DNA FP
CC=C(C)C1(CCC)C(=O)NC(=S)NC1=O	x	x	-4%	x	x	-1	0.2
COC(=O)C1=C(c2cc3ccccc3o2)C[C@@H]2CC[C@H]1N2C(=O)N1CCCCC1	5.5	2.5	x	0.81	3.6	18	0.6
CCCCc1ccc2[nH]cc(CCN)c2c1	2.4	-1.3	10%	0.63	2.5	24	0.1
COc1cccc(N2CCN(Cc3cccc(Cl)c3)CC2)c1	1.1	0.1	0%	0.61	2.9	-7	0.9

Main list, previewed entries included:
SMILES	LANA-H2A inh	Bfl-1 A1 inh	Vif TR-FRET	E coli growth	UCH37 inh	B2AR ag	HNF4A DNA FP
CC=C(C)C1(CCC)C(=O)NC(=S)NC1=O	x	x	-4%	x	x	-1	0.2
COC(=O)C1=C(c2cc3ccccc3o2)C[C@@H]2CC[C@H]1N2C(=O)N1CCCCC1	5.5	2.5	x	0.81	3.6	18	0.6
CCCCc1ccc2[nH]cc(CCN)c2c1	2.4	-1.3	10%	0.63	2.5	24	0.1
COc1cccc(N2CCN(Cc3cccc(Cl)c3)CC2)c1	1.1	0.1	0%	0.61	2.9	-7	0.9
Cc1ccccc1N1C(=O)NC(=O)/C(=C\c2ccc3c(c2)CCCN3Cc2ccccc2)C1=O	-7.0	1.5	x	0.69	5.3	13	0.0
CC1CC(C)OP(=O)(OCCC#N)O1 (centres undefined)	x	x	12%	0.68	1.8	-5	-1.0
CCC1(OC(=O)CN)C(=O)OCc2c1cc1n(c2=O)Cc2cc3ccccc3nc2-1 (centres undefined)	-2.9	0.3	-2%	0.63	i	9	1.0
O=C1NC(=O)C(=CN2CCc3ccccc32)C(=O)N1	-0.2	0.1	91µM*	x	0.7	-11	0.1
CN1CCN(c2ccc(/C=C3\C(=O)NC(=S)N(c4cccc(Br)c4)C3=O)o2)CC1	-38	-0.9	15%	0.71	21*	-77	128
C=CCn1c(O)c(C(C)=O)c(=O)[nH]c1=O (tested in a mixture with another compound)	3.8	0.4	10%	0.64	1.6	0	1.4
CC(C)(C)N1C(=O)NC(=O)/C(=C\c2ccc3c(c2)CCN3CCCCl)C1=O	1.9	-0.2	x	0.71	64*	5	17
Cc1ccccc1N1C(=O)NC(=O)/C(=C\c2cnn(-c3ccccc3)c2)C1=O	-2.8	0.0	x	0.68	4.3	14	0.9
O=c1c2ccccc2nc(/C=C/c2ccc([N+](=O)[O-])o2)n1-c1ccc(O)cc1	x	x	-1%	0.67	1.0	-291	177
Cc1ccc([N+](=O)[O-])cc1	-122	-0.3	x	0.66	2.8	0	-0.8
Cc1cc(C(=O)CS(=O)c2ccc(F)cc2)cc(C)c1OC(=O)N(C)C (centres undefined)	4.1	-0.1	-6%	0.67	2.1	3	-2.0
COc1cc(N2C(=O)CC(=O)NC2=O)cc(OC)c1OC	-2.4	-0.1	x	0.64	5.8	-5	-6.5
Cc1ccc(CN2CCCC(C(=O)c3cccc(C(F)(F)F)c3)C2)o1 (centres undefined)	-2.5	0.0	1%	0.66	2.3	1	-2.2
COc1ccccc1-n1c(/C=C/c2ccccn2)nc2ccccc2c1=O	-2.4	0.1	-4%	0.67	5.7	-4	1.8
CC1(C)C(C(=O)N2CCN(C(=O)c3ccccc3)CC2)C1(C)C	3.9	0.1	x	0.71	4.9	1	-0.2
C=C1C2C[C@@]3([C@@H]1O)[C@@H](C[C@@H]2O)[C@@]12C4[C@@H]3C[C@@H]1[C@@](C)(CC[C@@H]2O)CN4CC	-5.2	1.3	x	x	x	1	3.0
O=C(CN1C(=O)CCSc2ccccc21)N1CCC2(CC1)OCCO2	3.4	0.6	-3%	0.75	0.8	-4	-0.6
Cc1cc(C)c(Cn2c(C(=O)O)c(C=O)c3ccccc32)c(C)c1	-2.7	-0.3	x	0.71	4.9	5	106
CN1C(=O)N(C)C(=O)C(CCc2ccncc2)(Cc2ccc3c(c2)OCO3)C1=O	-2.8	0.2	-6%	0.73	0.2	-3	-2.0
O=[N+]([O-])c1cc(S(=O)(=O)c2ccc(O)c([N+](=O)[O-])c2)ccc1O	2.8	0.8	17%	0.65	6.0	21	-19
CCOC(=O)C(C)Oc1cc(C)cc2oc(=O)c3c(c12)CCCC3 (centres undefined)	-12	x	5%	0.72	-29	15	2.8
O=C(O)c1ccc(/C=C/c2nc3ccccc3c(=O)n2-c2ccc(Br)cc2)cc1	-7.2	0.6	0%	0.68	9.1	8	2.1
CC1CCC2[C@@H](C)C(=O)OC3O[C@]4(C)CCC1C32OO4 (some centres undefined)	-0.4	0.6	x	0.51	6.0	-3	0.5
Clc1cc(I)cc(Cl)c1NC1=NCCN1	1.9	0.6	x	0.69	4.9	2	0.4
C[C@]12CCC3C(C[C@@H](O)[C@H]4C[C@@H](O)CC[C@]34C)C1CC[C@@H]2O (some centres undefined)	1.8	0.4	3%	0.64	0.5	-1	3.8
CC1(C)C(=O)C=C[C@]2(C)[C@H]3CC[C@@]4(C)[C@H](c5ccoc5)OC(=O)[C@H]5O[C@]54[C@]3(C)[C@H](O)C[C@@H]12	-1.2	0.4	-4%	x	2.1	x	x
CN(CC1COc2ccccc2O1)c1nc(-c2cccnc2)nc2ccccc12 (centres undefined)	2.8	0.0	-33%	0.73	-0.2	6	3.5
Cc1ccc(OCC(=O)N2CCN(Cc3ccc4c(c3)OCO4)CC2)cc1C	-0.7	0.4	x	0.71	0.4	1	-0.6
CCCCn1c(O)c(C(C)=NCCCN(CC)CC)c(=O)[nH]c1=O	0.2	-0.6	-7%	0.69	1.8	4	0.2
COc1ccccc1CCNC1CCC(C)CC1 (centres undefined)	0.8	-0.3	x	0.65	2.3	-9	1.7
CCN1CCC2(CC1)NC(=O)c1ccccc1O2	-5.0	2.0	-10%	0.72	4.4	-7	2.7
O=c1[nH]c(=S)n(C2CC2)c(O)c1C=NCCc1ccccc1	2.6	0.6	-104%	0.72	6.4	x	x
O=C(Cn1c(NCCCl)nc2ccccc21)c1ccc(Br)cc1	2.4	0.2	x	0.58	7.9	-6	-0.1
CCCOc1ccccc1NP(=O)(Oc1ccccc1)Oc1ccccc1	7.2	-1.1	0%	0.65	1.4	-6	-0.7
c1ccc2c(c1)CNc1ccccc1O2	7.8	1.0	-4%	0.73	0.9	-5	1.6
CC(=O)c1cccc(NC(=O)N2C[C@H]3C[C@@H](C2)c2cccc(=O)n2C3)c1	2.8	0.4	x	0.71	0.9	14	-2.5

2 compounds picked at random from the list so far:
SMILES	LANA-H2A inh	Bfl-1 A1 inh	Vif TR-FRET	E coli growth	UCH37 inh	B2AR ag	HNF4A DNA FP
CCOC(=O)C(C)Oc1cc(C)cc2oc(=O)c3c(c12)CCCC3 (centres undefined)	-12	x	5%	0.72	-29	15	2.8
Cc1ccc([N+](=O)[O-])cc1	-122	-0.3	x	0.66	2.8	0	-0.8

(continued)
SMILES	LANA-H2A inh	Bfl-1 A1 inh	Vif TR-FRET	E coli growth	UCH37 inh	B2AR ag	HNF4A DNA FP
COC1=CCC2([N+](=O)[O-])CN(C)CC1([N+](=O)[O-])C2 (centres undefined)	-11	0.2	x	0.68	2.9	-4	11
C#C[C@]1(O)CCC2C3C(=O)C=C4C=CCC[C@]4(C)C3CC[C@@]21C (some centres undefined)	x	x	x	0.67	1.2	x	5.1
FC(F)(F)c1cccc(N2CCNCC2)c1	6.0	-0.1	-3%	0.67	4.9	x	x
COc1ccc2c3c1OC1C(=O)CC[C@@]4(O)[C@@H](C2)N(CC2CC2)CC[C@]314 (some centres undefined)	x	x	x	0.76	4.6	-5	3.5
COc1ccc(CNCCc2ccccc2F)c(OC)c1C	0.9	0.5	x	0.67	3.3	8	2.2
CN(C)/C=C/C(=O)C(Cl)(Cl)Cl	-1.7	1.1	10%	0.68	11	-7	38*
Cc1c(C)c2ccc(OCC(=O)N3C[C@H]4C[C@@H](C3)c3cccc(=O)n3C4)cc2oc1=O	6.3	0.0	x	0.71	-35	0	-0.6
CCN1CCC(N(C)C2CCCCC2)CC1	0.5	-0.2	0%	0.65	2.1	-4	0.2
COc1ccc(C(CNC(=O)Cc2ccc(Cl)c(Cl)c2)N2CCCCC2)cc1 (centres undefined)	-5.0	u	x	0.69	1.5	5	0.5
C=CC[C@@H](C)CC(=O)C(CCCN=[N+]=[N-])SOOc1ccccc1 (some centres undefined)	1.2	1.0	x	0.76	-8.7	2	-3.1
CC(C)CC(=O)NC(Oc1ccc(Cl)cc1)C(Cl)(Cl)Cl (centres undefined)	3.0	-0.5	10%	0.74	2.8	5	-4.6
CCCCn1c(=O)c(C(=O)NCc2ccccc2)c(O)c2ccccc21	-0.3	0.9	3%	0.75	0.4	6	3.9
Cc1nn(Cc2ccccc2)c(Cl)c1C(=O)OCC(=O)N1CCCC1	1.2	0.1	-14%	0.7	1.3	-6	2.4
CCC1(c2ccc(N)cc2)CCC(=O)NC1=O (centres undefined)	-3.8	-0.1	x	0.68	0.8	1	-1.5
COC(=O)C1=C(c2ccc(F)cc2F)C[C@@H]2CC[C@H]1N2C(=O)NC1CCCCC1	-2.7	2.2	x	0.79	2.4	2	1.7
Cc1cccnc1-n1c(-c2ccco2)nc2ccccc2c1=O	1.9	0.5	3%	0.77	6.5	-9	2.0
Nc1c2c(nc3ccccc13)CCN(Cc1ccccc1)C2	12	0.3	x	0.64	-32	22	-39
CCCCCCC(Cl)(Cn1ccnc1)c1ccccc1 (centres undefined)	-0.4	0.4	x	0.68	2.7	6	-1.0
COc1ccccc1CCNC1CCCCCC1	0.0	0.3	x	0.61	2.1	-9	-4.9
ClCCN1CCSCC1	x	x	-5%	0.66	0.8	-1	-3.4
CC(=O)N1CC(=O)Nc2ccc(F)cc2C1c1ccccc1 (centres undefined)	-2.7	1.3	-7%	0.68	2.2	1	-1.3
Cc1c(C(=O)N2CCC3(CC2)OCCO3)oc2ccc(S(=O)(=O)N3CCOCC3)cc12	2.6	0.2	4%	0.67	-0.5	-3	-0.2

Taken from above.
Under HNF4A DNA FP, CCC1(c2ccc(N)cc2)CCC(=O)NC1=O (centres undefined) has the entry -1.5
Under LANA-H2A inh, COc1ccccc1CCNC1CCCCCC1 has the entry 0.0
Under HNF4A DNA FP, CC(=O)N1CC(=O)Nc2ccc(F)cc2C1c1ccccc1 (centres undefined) has the entry -1.3

The list is partial. The share of hits here may be higher or lower than overall.
